# miR-21 reporter = raises the signal of a miR-21 reporter; HeLa miR-21 FLuc reporter, luciferase, 48 h; Potency, µM (highest dose often 38.3 µM), for inactives: at the top dose reporter change, positive = more light; 340,000 tested, under 10 active; AID 2288; active = well fitted rising curve with a large enough effect; inconclusive = small, poorly fitted or top-dose-only effect; inactive = no such curve, though single readings can be large or run the other way;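 note: % of control where 0% means no effect; miR-21 action dims this reporter so a rising signal means less miR-21 action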
#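 Compounds were titrated across several concentrations (up to approximately 40 uM) and incubated 48 hours with HeLa miR-21-FLuc reporter cells (miR-21 target sequence downstream of FLuc, endogenous miR-21). Readout was firefly luciferase luminescence after lytic detection reagent.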
# Rango release inh = prevents RanGTP from dissociating the Rango-importin beta complex; O95149+P62826; Biochemical FRET Rango-importin beta, RanGTP-induced dissociation; Potency, µM (titrated, usually from 46.1 µM), without a hit: top-dose activity change, negative = inhibition; actives 0.071% (n = 340,000); AID 540253; active means falling FRET ratio curve, often poorly fitted, with flat reads before Ran was added; inconclusive means other falling curves, or compound fluorescence or quenching; inactive means flat or rising ratio curve;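 note: potency is the fitted concentration of half-maximal effect; % of control where 0% means no effect; nearly all actives have a fitted effect of over 45% in size; -100% = wells without RanGTP and RCC1; the record marks most hits as doubtful in a second field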
#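 Compounds preincubate 5 min with complex of recombinant Rango and importin beta in PBS with 1 mM DTT. Ran (0.6 uM) loaded with 2 mM GTP plus 0.2 uM RCC1 starts dissociation; FRET is recorded 45 min later.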
# GLA inh pH 4.5 = alpha-galactosidase A (human) inhibition, pH 4.5. P06280. purified enzyme, 4-MU-alpha-Gal fluorescence, pH 4.5. activity change, negative = inhibition, % at 105 µM. 230,000 tested, under 10 active. AID 1467; inconclusive = small, poorly fitted or top-dose-only inhibition, or a rising curve; inactive = flat fitted curve, though single readings scatter; no compound was filed as active;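 note: 0% = full activity with enzyme and -100% = basal without enzyme; dose as in the result columns while the protocol names 77 µM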
# Target sequence (P06280 whole entry, looked up): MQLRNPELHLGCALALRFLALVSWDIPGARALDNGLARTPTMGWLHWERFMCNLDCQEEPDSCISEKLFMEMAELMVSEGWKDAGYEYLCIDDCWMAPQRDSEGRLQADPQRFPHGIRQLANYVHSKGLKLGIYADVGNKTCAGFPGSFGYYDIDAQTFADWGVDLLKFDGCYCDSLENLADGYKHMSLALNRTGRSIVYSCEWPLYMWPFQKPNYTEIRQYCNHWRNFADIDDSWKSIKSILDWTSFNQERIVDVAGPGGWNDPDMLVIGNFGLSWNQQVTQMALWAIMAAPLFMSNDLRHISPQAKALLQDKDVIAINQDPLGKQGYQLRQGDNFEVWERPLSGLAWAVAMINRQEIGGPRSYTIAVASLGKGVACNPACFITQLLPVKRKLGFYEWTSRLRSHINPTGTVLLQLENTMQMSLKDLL
# Rango complex inh = prevents formation of the Rango-importin beta complex; Rango CFP/YFP FRET sensor + importin beta, 45 min; Potency, µM (top dose mostly 92.2 µM), inactives show at the highest dose inhibition of complex formation; Q14974; actives 0.031% (n = 340,000); active = rising FRET ratio curve, often small or poorly fitted; inconclusive = mostly compound fluorescence or quenching in the first reads; inactive = flat curves in all reads;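 note: potency is the fitted concentration of half-maximal effect; 0% = DMSO wells and 100% = buffer wells lacking importin beta; nearly all actives have a fitted effect of over 15% in size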
#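 Inhibition scored from the CFP 486 nm/YFP 530 nm FRET ratio 45 min after adding 0.125 microM importin beta to 50 nM Rango biosensor preincubated 5 min with compound (room temperature, PBS with DTT, Tween-20, BSA). No-importin wells as positive control.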
# The depositor's hits bear a star; ? = inconclusive; / = no result given.
# Results follow in this order: miR-21 reporter | Rango release inh | GLA inh pH 4.5 | Rango complex inh
CCN(C(=O)CN1CCN(S(=O)(=O)c2ccccc2C(F)(F)F)CC1)c1c(N)n(Cc2ccccc2)c(=O)[nH]c1=O
 : -8.2% | 7.2% | 0.3 | 3.3%
COc1ccc(Cc2nc3ccc(C(=O)NCCc4ccncc4)cc3o2)cc1OC
 : 0.0% | 15.1% | / | -2.9%
O=C(NCc1ccccc1)c1ccc2c(c1)OCCO2
 : -30.5% | 11.7% | -4.9 | 0.6%
Cc1ccc(CNC(=O)Nc2ccc(OC(F)(F)F)cc2)n1C
 : -2.8% | 8.0% | / | -0.2%
CC(C(=O)Nc1ccccc1C(=O)N1CCOCC1)N(c1ccc(Cl)cc1)S(C)(=O)=O (stereo not given)
 : -1.2% | 4.0% | 2.7 | -0.5%
Cc1csc(NC(=O)CSC2=NS(=O)(=O)c3cc(F)ccc3N2)n1
 : / | -24.5% | / | 3.6%
NS(=O)(=O)c1cccc(NC(=O)COC(=O)CCSc2ccccc2)c1
 : -7.7% | -9.1% | -7.0 | 0.7%
Cc1ccc(S(=O)(=O)N(Cc2cc3ccccc3[nH]c2=O)CC2CCCO2)cc1 (stereo not given)
 : 3.4% | 9.5% | / | -1.0%
CN(C)c1nc(Oc2ccc(=O)[nH]n2)nc(N2CCCCC2)n1
 : -7.7% | 0.7% | 9.6 | -2.7%
CSc1ncc(Sc2ccccc2)c(C(=O)O)n1
 : / | 2.0% | / | 0.8%
COC(=O)CC(NC(=O)c1ccc(C)cc1)c1ccccc1 (stereo not given)
 : -5.6% | -11.8% | 1.7 | -3.2%
O=C(c1ccc(Cl)cc1)c1ccc(Oc2cc(NN3CCCCC3)c([N+](=O)[O-])cc2[N+](=O)[O-])cc1
 : 0.6% | -11.2% | / | 0.2%
Cc1c(N2C(=O)c3ccc(Br)cc3C2=O)c(=O)n(-c2ccccc2)n1C
 : -7.0% | 4.6% | 4.6 | -3.2%
Cc1ccc(C)c(OCC(=O)O/N=C(\N)c2cccc([N+](=O)[O-])c2)c1
 : -2.1% | -3.8% | -2.7 | -4.7%
COC(=O)N/N=C/c1cn(Cc2ccc(F)cc2)c2ccccc12
 : 12.8% | 3.4% | -2.5 | 0.1%
COC(=O)C1=C(C)C(c2cccs2)NC(=O)N1C (stereo not given)
 : -3.0% | -2.8% | -1.7 | -0.1%
CCC(CC)COC(=O)C1=C(C)NC(=O)NC1c1cccc([N+](=O)[O-])c1 (stereo not given)
 : 9.3% | 8.1% | / | 4.3%
COc1ccc(NC(=O)N(C)C[C@H]2Oc3ccc(NC(=O)C4CC4)cc3C(=O)N([C@H](C)CO)C[C@@H]2C)cc1
 : / | 0.5% | / | -0.4%
Cn1cc([N+](=O)[O-])c(C(=O)Nc2nccs2)n1
 : -7.6% | -0.7% | -7.5 | -4.7%
COC(=O)c1ccccc1NC(=O)c1ccc2c(c1)CC(C)O2 (stereo not given)
 : -27.0% | 0.3% | / | -0.5%
Cc1c(CC(=O)O)c(=O)oc2c(C)c(OCc3c(F)cccc3Cl)ccc12
 : -2.5% | -6.4% | / | -4.7%
CCCCOc1ccc(C(=O)OCC(=O)N2CCOCC2)cc1
 : 0.6% | -6.7% | / | 1.6%
COc1ccc(OC)c(S(=O)(=O)N2CCC(C(=O)NCc3cccnc3)CC2)c1
 : 0.5% | 15.7% | / | ?
COc1ccc(Nc2cc(C)c3ccc(O)cc3n2)cc1
 : -35.3% | -13.4% | -12.3 | ?
Cc1ccc(C2SCC(=O)N2Cc2cn3ccsc3n2)o1 (stereo not given)
 : -10.9% | -8.9% | 14.0 | -0.2%
Cc1ccc(S(=O)(=O)NCCN2CCOCC2)cc1C
 : -4.7% | -4.1% | -2.3 | 0.3%
CC1CCCCC1NC(=O)CSc1nnc(COc2ccc(Cl)cc2)o1 (stereo not given)
 : -3.5% | -14.2% | / | -1.0%
COC(=O)CCC/C=C1/SCC(NC(=O)c2ccccc2)C1=O (stereo not given)
 : -7.2% | -25.4% | -5.7 | -0.2%
CCOC(=O)c1cc(=O)n(Cc2ccccc2C)c2ccccc12
 : 17.2% | -20.9% | 4.6 | 2.7%
C=CCn1c(SCC(=O)c2[nH]c(C)c(C(=O)OCC)c2C)nc2scc(-c3ccc(OC)cc3)c2c1=O
 : -1.4% | -4.6% | 6.0 | -4.8%

# Reprinted at random: 2 compounds from above.
# Results follow in this order: miR-21 reporter | Rango release inh | GLA inh pH 4.5 | Rango complex inh
CCC(CC)COC(=O)C1=C(C)NC(=O)NC1c1cccc([N+](=O)[O-])c1 (stereo not given)
 : 9.3% | 8.1% | / | 4.3%
CC1CCCCC1NC(=O)CSc1nnc(COc2ccc(Cl)cc2)o1 (stereo not given)
 : -3.5% | -14.2% | / | -1.0%

# Remaining list, next part.
# Results follow in this order: miR-21 reporter | Rango release inh | GLA inh pH 4.5 | Rango complex inh
COc1ccc(-c2nn(C)c(=O)c3ccccc23)cc1CNC(=O)c1ccco1
 : -6.1% | -23.1% | -6.2 | -0.3%
O=S1(=O)NC(c2ccccc2)CC(CC2CCCCC2)O1 (stereo not given)
 : -9.1% | -1.1% | / | -0.1%
CCOC(=O)C(=CNc1cccnc1Oc1ccc(C)c2c1CCC2)C(=O)OCC
 : 1.0% | -13.7% | -15.3 | -0.5%
CC1CC(NC(=O)CCn2c(=O)oc3ccccc32)CC(C)(C)C1 (stereo not given)
 : -1.6% | -9.2% | 1.4 | -0.2%
COC(=O)c1nn(-c2nc(-c3ccc(OC)c(OC)c3)cc(C(F)(F)F)n2)cc1[N+](=O)[O-]
 : 0.4% | -12.0% | 3.9 | ?
Oc1ccc(Br)cc1-c1cc(-c2ccco2)[nH]n1
 : -7.6% | -12.5% | -18.4 | 0.5%
Nc1nc(-c2ccco2)cs1
 : -10.0% | ? | -6.1 | 0.2%
O=C(NC(=S)Nc1ccc(Cl)cc1)c1ccccc1
 : -64.9% | 5.0% | -9.7 | -2.4%
CCCCn1c(N)c(N(CCOC)C(=O)c2cc(-c3ccccc3Cl)nc3ccccc23)c(=O)[nH]c1=O
 : / | 16.3% | / | ?
COC(=O)NC1(C(F)(F)F)C(=O)NC(C)=C1C(=O)OC (stereo not given)
 : -2.8% | ? | 0.5 | -2.3%
COc1ccc(C2C(C#N)=C(C)NC3=C2C(=O)CC(C)(C)C3)cc1 (stereo not given)
 : -0.3% | -19.1% | 22.7 | ?
COc1cc(NC(=O)CC(C)S(=O)(=O)c2cc3c(cc2C)NC(=O)CO3)cc(OC)c1OC (stereo not given)
 : 3.0% | 9.8% | / | 0.4%
O=C(Cn1cnc2c(oc3nc4c(cc32)CCCC4)c1=O)Nc1ccccc1
 : -5.6% | 0.9% | / | -1.1%
CC(C)(C)c1[nH]nc2c1C(c1ccoc1)C(C#N)=C(N)O2 (stereo not given)
 : -1.2% | -9.9% | -2.2 | 4.9%
FC(F)(F)c1cc(Oc2ccc(Cl)cc2)nc(-c2ccccn2)n1
 : -5.7% | 16.5% | -0.2 | 4.9%
CC(=O)n1cc(N(C(=O)CCl)c2ccccc2)c2ccccc21
 : ? | -16.5% | 0.8 | -3.9%
O=C(COC(=O)c1ccccc1F)NCc1ccc2c(c1)OCO2
 : / | 0.0% | / | -0.5%
COc1ccc(NC(=O)CCC(=O)OC(C(=O)c2ccccc2)c2ccccc2)cc1 (stereo not given)
 : -5.5% | -11.0% | -11.4 | -0.9%
CN1C(=O)N(C)C2(c3ccccc3)NNC(N)=NC12c1ccccc1 (stereo not given)
 : -5.1% | -12.7% | -7.7 | ?
Cc1cc2cc(CCNC(=O)c3ccc(S(=O)(=O)N4CCCC4)cc3)c(=O)[nH]c2cc1C
 : 6.3% | -14.3% | / | -3.4%
Cc1ccc(CNC(=O)C2CC3Cn4c(nc5cc(Cl)c(Cl)cc54)C3N2C)o1 (stereo not given)
 : 0.0% | -18.6% | -2.7 | 3.9%
O=C(O)[C@H]1CCC(=O)N1Cc1ccco1
 : -4.7% | -9.1% | -0.5 | 1.2%
O=C(CSc1ccccc1)Nc1ccc2c(c1)OCCO2
 : -43.4% | -10.7% | / | 0.5%
O=C(O)c1ccc2c(c1)CCCN2
 : -5.8% | 0.7% | 2.3 | -2.3%
CCOC(=O)CC(NC(=O)Cc1ccc(F)cc1)c1ccccc1Cl (stereo not given)
 : -11.2% | 5.1% | 6.1 | 5.4%
COc1ccc2cc(C3CC(c4ccco4)=NN3S(C)(=O)=O)c(Cl)nc2c1 (stereo not given)
 : -5.0% | ? | -7.8 | ?
CCOC(=O)C(C)NC(=O)CCc1nnc2ccc(N3CCCCC3)nn12 (stereo not given)
 : -5.6% | 7.3% | / | -2.4%
COCCCNc1nc2c(c(=O)n(Cc3cccc(Br)c3)c(=O)n2C)n1C
 : -0.2% | -22.7% | / | 15.1%
CC(=O)c1cccc(NC(=O)N2CCCC2C(=O)Nc2ccc3c(c2)OCO3)c1 (stereo not given)
 : -2.3% | 18.6% | 9.1 | 1.2%
COc1ccc(C(=O)NC(C)CCn2cccn2)cc1OC1CCN(C(C)C)CC1 (stereo not given)
 : -4.4% | -11.6% | / | -1.5%
Cc1snc(SCc2cccc(Cl)c2)c1C#N
 : -15.3% | 16.5% | / | -0.5%
Clc1ccc(/C=N/Nc2ccccn2)cc1
 : -54.0% | -4.8% | -4.7 | -4.4%
Cn1cc(/C=C(\NC(=O)c2ccccc2Cl)C(=O)NCCCN2CCOCC2)c2ccccc21
 : -0.4% | 4.9% | / | -0.8%
C[C@@H]1COC(=O)[C@@H](NC(=O)OCC2c3ccccc3-c3ccccc32)C/C=C\C[C@@H](CC(=O)N(CCO)Cc2ccccc2)C(=O)N1
 : / | -3.0% | / | -0.9%
Cc1cc(C(=O)CSc2nnc(-c3ccco3)o2)c(C)n1C
 : / | -12.7% | / | 0.5%
COc1ccc(/C=C(\C#N)C(=O)Nc2cccc3ncccc23)cc1OC
 : -0.1% | ? | -4.2 | ?
CCc1ccc2c(c1)C(c1ccc([N+](=O)[O-])cc1)=NNC(c1ccc(C)cc1)=N2
 : -14.7% | ? | -5.3 | 1.2%
O=C(COC(=O)c1ccccc1NCCO)NCc1cccs1
 : / | 5.9% | / | -5.5%
C=CCn1c(SCc2nc(N)nc(N3CCCCC3)n2)nnc1-c1ccco1
 : -10.6% | 9.7% | -4.2 | 5.9%
COc1cc(S(=O)(=O)N2CCN(c3ccccc3F)CC2)c(OC)cc1Cl
 : -11.7% | -7.3% | 1.2 | 3.8%
CC(C)Oc1ccc(CN2CCC(n3nccc3NC(=O)CCc3ccccc3)CC2)cc1
 : 7.9% | -5.9% | / | 0.0%
Cc1cccc(N2CCN(C(=O)CN3C(=O)C4CC=CCC4C3=O)CC2)c1C (stereo not given)
 : -44.4% | 14.2% | 1.2 | 1.5%
O=C(CNCc1cccc2ccccc12)Nc1ccccc1[N+](=O)[O-]
 : -3.0% | -8.5% | 4.8 | 0.1%
O=C(c1cccc(NS(=O)(=O)c2ccc(F)c(F)c2)c1)N1CCCCC1
 : / | -8.9% | / | -0.2%
Cc1ncc(CN2CCCC(C(=O)Nc3ccc(-c4ccco4)cc3)C2)n1C (stereo not given)
 : -3.0% | 1.6% | / | -1.3%
O=C1c2ccccc2C(Nc2ccc3c(c2)OCCO3)N1Cc1ccco1 (stereo not given)
 : 8.0% | -16.0% | 2.8 | ?
CC(Sc1nnnn1C)C(=O)Nc1ccc(N2CCOCC2)cc1 (stereo not given)
 : -9.0% | 5.9% | 7.4 | 1.8%
COC(=O)c1c(C)[nH]c(-c2csc(N)n2)c1C
 : 15.3% | -7.4% | ? | -0.4%

# An excerpt from above in order of heavy-atom count, rising.
# Results follow in this order: miR-21 reporter | Rango release inh | GLA inh pH 4.5 | Rango complex inh
COC(=O)c1c(C)[nH]c(-c2csc(N)n2)c1C
 : 15.3% | -7.4% | ? | -0.4%
O=C(COC(=O)c1ccccc1NCCO)NCc1cccs1
 : / | 5.9% | / | -5.5%
O=C(c1cccc(NS(=O)(=O)c2ccc(F)c(F)c2)c1)N1CCCCC1
 : / | -8.9% | / | -0.2%
Cc1ncc(CN2CCCC(C(=O)Nc3ccc(-c4ccco4)cc3)C2)n1C (stereo not given)
 : -3.0% | 1.6% | / | -1.3%
CC(C)Oc1ccc(CN2CCC(n3nccc3NC(=O)CCc3ccccc3)CC2)cc1
 : 7.9% | -5.9% | / | 0.0%

# From PubChem BioAssay

# This is a subset (hit frequency here may not be typical).
